RE007 growth inh: qHTS Assay for Inhibitors of the HIV-1 protein Vpr | S. pombe RE007 Vpr strain, BacTiter-Glo ATP luminescence, 24 h; control for the full effect not named in the record | Potency, µM (highest dose often 92.2 µM), inactives show at the highest dose activity change, negative = less growth | hit rate 0.21% among 360,000; active = well fitted falling curve with a large enough effect; inconclusive = small, poorly fitted or top-dose-only effect; inactive = no such curve, though single readings can be large or run the other way;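 also: nearly all actives have a fitted effect of over 50% in size; the assay follows cell death caused by Vpr and the record does not say whether a fall means rescue or toxicity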
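Fission yeast RE007 carrying one integrated HIV-1 vpr copy, seeded at OD 0.01 in PMG+AL medium with 23 nL pinned compound. Grown 24 h at 30 degrees; viability read by BacTiter-Glo luminescence after 5 min.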
StopGo reporter: High Throughput Screening for Foot and Mouth Disease Virus Antivirals; human cells with a luciferase reporter of 2A StopGo recoding; control for the full effect not named in the record; Potency, µM (doses to about 57.9 µM), for inactives: top-dose signal change, negative = less light; hit rate 1.2% among 410,000; active = well fitted falling curve with a large enough effect; inconclusive = small, poorly fitted or top-dose-only effect; inactive = no such curve, though single readings can be large or run the other way; tested in HEK293T cells; also: nearly all actives have a fitted effect of over 45% in size; luciferase light after 4 h
* hit, by the source's call; ? = inconclusive; [ ] = dose if it differs, or a comment. % is scaled to controls: 0 for no effect and ±100 for the full control effect; potency is read from the fitted curve at half-maximal effect. These rows are one share of the data, so the mix of outcomes need not match the whole.

SMILES	RE007 growth inh	StopGo reporter
Cc1nc(C(=O)Nc2ccc(Cl)cc2)sc1C1(C)CC(c2cccc([N+](=O)[O-])c2)=NO1 (stereo not drawn)	1.7%	?
Cc1cnc(C)c(Nc2nc(C(N)Cc3ccccc3)cs2)n1 (stereo not drawn)	-9.8%	-25.4%
COc1cccc(C(=O)N2CCC[C@@H]2C(=O)N2CCC[C@H]2C(=O)NCc2ccncc2)c1	0.1%	-9.2%
COCCNC(=O)CSc1nc(N)c(NC(=O)c2ccco2)c(=O)[nH]1	-1.3%	-10.0%
O=C1COc2ccc(C(=O)COC(=O)CCCOc3ccccc3)cc2N1	-7.0%	?
CCc1nc2ccc(C(=O)Nc3cccc(NS(C)(=O)=O)c3)cn2c1N(C)CCCc1ccccc1	-16.3%[18.4 µM]	-18.6%
NC(=O)c1ccc(NS(=O)(=O)c2ccc(S(=O)(=O)N3CCCC3)cc2)cc1	3.4%	-15.5%
O=C1NC[C@@H](CCCCN2C[C@H](Cc3ccccc3)N(CCc3ccc(O)cc3)C(=O)C2=O)N(Cc2ccccc2)C1=O	-4.4%	-20.4%
Cc1c(C(=O)N2CCC2(C)C(=O)O)oc2ccccc12 (stereo not drawn)	16.1%	-12.2%
C=CCn1c(=O)c(C(=O)Nc2ncccc2C)c(O)c2ccccc21	-14.5%	?
OC(c1cccc(Cl)c1)c1nc(-c2cccc3cccnc23)cs1 (stereo not drawn)	-7.6%	2.1%
CC1Nc2ncnc(N3CCc4ccccc4C3)c2N(Cc2ccccc2)C1=O (stereo not drawn)	-6.2%	-26.7%
CC(=O)CC1c2cc(F)ccc2C=C(c2ccsc2)N1c1ccc(-c2cccnc2)cc1 (stereo not drawn)	-7.5%	?
CCN1C[C@@H]2[C@@H]3C(=O)N(Cc4ccccc4)C(=O)[C@@H]3[C@](C)(C1=O)N2C(=O)c1ccc(F)cc1	6.8%	-8.7%
CC(C)Oc1ccc(F)cc1-c1cc(C(=O)NCc2cc(C(F)(F)F)cc(C(F)(F)F)c2)[nH]n1	?	0.0%
COc1ccc(-c2nnc(COc3ccc(Br)cc3C)o2)cc1	3.7%	6.2%
Cc1cccc(C)c1OCC(O)CN1CCN(C(=O)c2ccccc2)CC1 (stereo not drawn)	-16.7%	-21.0%
COCCNC(=O)C1CCCN(Cc2ccccc2Cl)CC1 (stereo not drawn)	4.3%	-21.1%
COc1ccc2c(c1)CCO[C@]21O[C@H](CCO)C[C@H](O)[C@H]1O	-5.0%	-6.3%
COc1ccc(NC(=O)c2cc(-c3sc(NC(=O)c4ccccc4)nc3C)n(Cc3ccccc3)n2)cc1	-7.8%	-12.4%
CCCCN1CC(N2CCCCC2)CS1(=O)=O (stereo not drawn)	6.4%	-10.5%
COCCN1C(=O)CCC1(C)C(=O)NC1CCCCC1 (stereo not drawn)	5.9%	-13.5%
O=C1NC[C@@H](CCCCN2C[C@H](Cc3ccc(O)cc3)N(CCc3ccccc3)C(=O)C2=O)N(CCC2CCCCC2)C1=O	-14.0%	-12.9%
Cc1ccccc1-c1cc2nc(NCCCN(C)C)n(C)c(=O)c2s1	9.2%	-15.3%

Entries of single compounds, looked up by structure.
Cc1ccccc1-c1cc2nc(NCCCN(C)C)n(C)c(=O)c2s1 as listed: RE007 growth inh: 9.2%; StopGo reporter: -15.3%
COc1ccc(-c2nnc(COc3ccc(Br)cc3C)o2)cc1 as listed: RE007 growth inh: 3.7%; StopGo reporter: 6.2%

New compounds follow
SMILES	RE007 growth inh	StopGo reporter
O=C(CCn1c(=S)[nH]c2cc3c(cc2c1=O)OCO3)NCCc1ccccc1Cl	0.4%	-12.2%
COc1ccc(NC(=O)C2c3ccccc3OCC(=O)N2Cc2ccco2)cc1 (stereo not drawn)	0.7%	0.0%
NC(CSC1(c2ccc(F)cc2)c2ccccc2-c2ccccc21)C(=O)O (stereo not drawn)	3.8%	-20.5%
Cc1cccc(C)c1NC(=O)C1(C)CN(S(C)(=O)=O)CC(=O)N1Cc1ccc2c(c1)OCO2 (stereo not drawn)	0.7%	1.0%
O=C(Nc1nnc([C@@H]2C[C@H](O)[C@@H](CO)O2)s1)c1cccc(C(F)(F)F)c1	-0.3%[18.4 µM]	6.6%
CSC[C@H]1CN(CCc2ccccc2)C(=O)[C@@H]1CC(=O)Nc1ccc(Br)cc1	4.7%	-0.6%
O=C(OCc1ccccc1)N1CCC2CC1c1ccc(/C=C/CCCCl)cc12 (stereo not drawn)	11.2%	0.0%
CCCCCC(=O)N1C[C@@H](O)[C@H](n2cc(-c3ccc(F)cc3)nn2)C[C@@H]1c1ccc(C)cc1	14.4%	8.5%
CN(C)c1ccc(-c2ccnc3c2CC(C)(C(=O)NCc2cccc(Cl)c2)O3)cc1 (stereo not drawn)	-6.7%	-4.0%
CC1=C(C(=O)N2CCCCCC2)CC(CC(=O)NCCCN(C)C)C(=O)N1Cc1ccc(F)cc1 (stereo not drawn)	3.8%	-23.3%
CCC(C)C(CO)NCCCn1cnc2c(OCc3ccccc3)ncnc21 (stereo not drawn)	2.3%	-10.7%
c1ccc(COc2ncnc3c2ncn3CCCNCC2CCCO2)cc1 (stereo not drawn)	-5.5%	-3.8%
Cc1cc(C(F)(F)F)nc(NNc2nc(C)cc(C(F)(F)F)n2)n1	-19.2%	0.9%
CC1(C(=O)Nc2cccc(OC(F)(F)F)c2)Cc2c(-c3cccc(C(F)(F)F)c3)ccnc2O1 (stereo not drawn)	-5.7%[18.4 µM]	-19.0%
CC1(C(=O)NS(=O)(=O)c2ccc(C#N)cc2)CCN1C(=O)Cc1ccccc1Cl (stereo not drawn)	9.8%	-10.8%
COc1ccc(S(=O)(=O)N(C)C[C@@H]2OCc3cn(nn3)CCCC(=O)N([C@H](C)CO)C[C@H]2C)cc1	6.7%	-12.4%
Cc1cc(C)cc(Nc2cc(C)nc3ncnn23)c1	23.2%	-10.6%
O=C(COC(=O)CCS(=O)(=O)c1ccccc1)NNC(=O)c1ccc([N+](=O)[O-])cc1	-1.4%	-3.4%
C[C@@H](c1ccccc1)N1C[C@@H](COCc2ccccc2)Oc2cc(N3CC[C@@H](N(C)C)C3)ccc2S1(=O)=O	-13.9%	-4.7%
CC1CCN(C(=O)CCn2c(=O)oc3ccc(Cl)cc32)CC1	16.2%	-3.7%
COc1cccc(NC(=S)NC2CC(C)CC(C)(C)C2)c1 (stereo not drawn)	-7.1%	0.4%
CC(C)CC(CO)N1CCN(C(=O)c2ccccc2)CCC1=O (stereo not drawn)	29.3%	-18.5%
Cc1ccc(S(=O)(=O)Nc2ccc3c(c2)C(=O)N([C@@H](C)CO)C[C@@H](C)[C@@H](CN(C)CC2CC2)OCCCC[C@@H](C)O3)cc1	-6.3%	?
CCOc1ccc(CCN2C(=S)N([C@@H](Cc3ccc(O)cc3)CN3CCC[C@@H]3CN3C(=S)NC[C@@H]3CC(C)C)C[C@@H]2Cc2ccccc2)cc1	-4.0%	-24.6%
CC(C)[C@@H]1Cc2[nH][nH]c(=O)c2[C@H](CCc2ccccc2)O1	-3.7%	-24.6%
CCCCN(CCCC)Cc1cc(=O)oc2cc(C)c(Cl)cc12	-21.5%	?
CC(=O)OC1CC(OC2C(O)CC(OC3C(O)CC(OC4CCC5(C)C(CCC6C5CC(O)C5(C)C(C7=CC(=O)OC7)CCC65O)C4)OC3C)OC2C)OC(C)C1OC1OC(CO)C(O)C(O)C1O (stereo not drawn)	16.9%	?
COCCn1c(C)cc(C(=O)CN2C(=O)C(=O)N(CCC3=CCCCC3)C2=O)c1C	-0.7%	-21.5%
COc1ccc(-c2cnc3c(NC=O)cc(-c4ccc(C(=O)N5CCOCC5)cc4)cn23)cc1OC	2.5%[18.4 µM]	-20.8%
O=C1NC[C@@H](CCCCN2C[C@H](Cc3ccccc3)N(Cc3ccccc3)C(=O)C2=O)N(CC2CCCCC2)C1=O	-5.5%	43.7%[activator]
CCN(CC)c1ncnc2c1ncn2[C@H]1CN(Cc2cccnc2)C[C@@H](CO)O1	-2.6%	-11.3%
COCCNC(=O)C1(C)CCN(C(=O)Cc2ccc(OC)c(OC)c2)C1 (stereo not drawn)	-3.1%	-15.3%
COC(=O)[C@@]12C[C@@H](CC(=O)N3CCCCC3)C(=O)N(Cc3ccc4c(c3)OCO4)C1=CCC(C)(C)C2	-9.9%	-13.0%
C=C(C1=CCN(S(=O)C(C)(C)C)[C@H]1CCO)c1ccccc1 (stereo partly drawn)	-6.0%	-10.8%
C[C@H](CO)N1C[C@H](C)[C@@H](CN(C)Cc2ccccc2C(=O)O)OCc2cnnn2CCCC1=O	12.4%	-8.0%
CC1CN(C(=O)COC(=O)c2cc(=O)[nH]c3ccccc23)CC(C)O1 (stereo not drawn)	-1.5%	6.5%
CC(=O)Nc1ccc(NC(=O)COc2cccc3ccccc23)cc1	-2.8%	-20.2%
N#C[C@H]1C(O)C(O)c2ccccc2N1C(=O)c1ccccc1 (stereo partly drawn)	11.1%	-14.3%
O=Cc1cn(-c2ccccc2)nc1-c1cccc([N+](=O)[O-])c1	-6.4%	10.9%
Cc1ccc(S(=O)(=O)NC(=O)C2(C)CCN2C(=O)CC2CCCC2)cc1 (stereo not drawn)	6.4%	5.4%
CN(Cc1ccccc1)C(=O)c1ccc(Nc2nc(C(N)Cc3ccccc3)cs2)nc1 (stereo not drawn)	-6.9%	43.6%[activator]
CCN(C)C1CN(Cc2cn(Cc3ccccc3)nn2)S(=O)(=O)C1 (stereo not drawn)	7.5%	-14.6%
CCc1nc2c(OCc3ccc(OC)cc3)cccn2c1N(C)C(=O)C(C)C	-10.1%	-11.0%
CCOc1cc(N2CCOCC2)c(OCC)cc1NC(=O)c1cccc(S(=O)(=O)N2CC(C)OC(C)C2)c1 (stereo not drawn)	5.3%	-9.5%
CCOc1ccc(CCN2C(=S)N([C@@H](Cc3ccc(O)cc3)CN3CCC[C@@H]3CN3C(=S)NC[C@@H]3Cc3ccc(O)cc3)C[C@@H]2Cc2ccc(O)cc2)cc1	6.2%	-1.3%
CC(=O)OC[C@@H]1CN(Cc2ccccc2)C[C@H](n2cnc3c(NC4CC4)ncnc32)O1	8.6%	10.7%
O=c1[nH]c2ccccc2nc1-c1nnnn1C1CCCC1	-14.3%	-19.3%
Cc1cc(/C=N/NC(=O)c2ccoc2C)cc(C)c1O	3.2%	81.4%[activator]
Fc1ccc2nc(-c3ccccc3)ccc2c1	-27.8%	29.3%
COc1cccc(-c2ccc3c(c2)O[C@H](CN(C)C(=O)c2ccccc2F)[C@H](C)CN([C@H](C)CO)S3(=O)=O)c1	1.6%	47.2%[activator]
CCCCNC(=O)c1nc(C2CCN(S(=O)(=O)c3ccc(C(F)(F)F)cc3)CC2)oc1-c1ccccc1	-5.8%	-19.4%
COc1cccc(CN(C)C(=O)C2CCCN(C(=O)c3ccc(Cl)cc3)C2)c1 (stereo not drawn)	-9.9%	-17.0%
C[C@@H]1CN([C@H](C)CO)C(=O)CCCn2nncc2CO[C@H]1CN(C)S(=O)(=O)c1ccc(-n2cccn2)cc1	-2.6%	-16.7%
COC(=O)C1(C)CCCC2(C)c3cc(OC)ccc3C(=O)C(Br)C12 (stereo not drawn)	-2.0%	?
Cc1ccc(OCCSc2nc3ccccc3n2CCC(=O)O)c(C(C)C)c1	4.9%	-20.1%
CCc1ccc2cc(F)cc(F)c2n1	8.9%	2.5%
COCCNc1nc(NCc2ccc(NC(C)=O)cc2)c2sc(-c3ccccc3)cc2n1	-12.8%	-7.2%
CN(C)CCCNc1nc2cc(-c3cccc(Cl)c3)sc2c(=O)n1C	?	0.6%
CC1(C(=O)NS(=O)(=O)c2ccccc2)CCN1C(=O)c1ccccc1 (stereo not drawn)	-3.0%	3.4%
OC[C@@H]1CN(Cc2ccc(-c3ccccc3)cc2)C[C@H](n2cnc3c(N4CCOCC4)ncnc32)O1	9.0%	?

Further entries
SMILES	RE007 growth inh	StopGo reporter
CC1(C(=O)Nc2ccc3c(c2)OCO3)CCN1C(=O)Cc1cccs1 (stereo not drawn)	-7.9%	6.3%
Cc1cc(Cl)ccc1C(O)c1ncc(-c2ccc3ccccc3c2)[nH]1 (stereo not drawn)	6.3%	-2.3%
CC1(C(=O)Nc2ccc3c(c2)OCCO3)CCN1Cc1csc2ccccc12 (stereo not drawn)	5.0%[18.4 µM]	-15.1%
COc1ccccc1NS(=O)(=O)c1ccc(C)c(NS(=O)(=O)c2cc(NC(C)=O)ccc2OC)c1	-2.6%	38.3%[activator]
C#CCOCCOCCOCCNc1nc(N2CCN(C(=O)Cn3cc(CCO)nn3)CC2)nc(N2CCN(C(=O)Cn3cc(CC(C)O)nn3)CC2)n1 (stereo not drawn)	8.9%	-0.4%
COc1ccccc1N(C)S(=O)(=O)c1ccc(C(=O)NCC(c2ccco2)N2CCCCC2)cc1 (stereo not drawn)	14.3%	-15.7%
COc1cc(C(C)=O)ccc1OCC(=O)N1CCCC1c1ccc2c(c1)OCCCO2 (stereo not drawn)	0.7%	-12.1%
CN1C[C@@H]2[C@@H]3C(=O)N(C)C(=O)[C@@H]3[C@](C)(C1=O)N2C(=O)c1ccc(Cl)cc1	-0.1%	-15.4%

Screens deposited in PubChem BioAssay by National Center for Advancing Translational Sciences (NCATS).
